Rce1 inh: blocks yeast Ras-converting enzyme; AID 2563; Q03530; actives 0.27% (n = 290,000); yeast membranes, quenched prenylated peptide cleavage fluorescence; calls only;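 active means fall in fluorescence gain of 50% or more versus controls, with final raw signal at or below 3038400; inconclusive means same 50% fall but final raw signal above 3038400; inactive means fall in fluorescence gain under 50%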;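 further: plate controls were neutral control wells for no effect and wells lacking membranes for full effect; tested at 10 µM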
Target sequence (Q03530 whole entry, looked up): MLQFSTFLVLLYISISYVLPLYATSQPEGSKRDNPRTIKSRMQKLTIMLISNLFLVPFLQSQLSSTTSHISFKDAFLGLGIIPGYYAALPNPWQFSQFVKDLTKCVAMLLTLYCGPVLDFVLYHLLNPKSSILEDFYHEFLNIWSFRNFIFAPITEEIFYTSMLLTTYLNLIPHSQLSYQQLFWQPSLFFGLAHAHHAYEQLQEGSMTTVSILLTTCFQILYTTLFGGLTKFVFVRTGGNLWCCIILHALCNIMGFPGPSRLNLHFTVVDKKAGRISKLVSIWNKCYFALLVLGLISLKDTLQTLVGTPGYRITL
PABP FP inh: blocks human PABP binding to poly(A) RNA | P11940 | actives 1% (n = 290,000) | inhibition, % at 35 µM | fluorescence polarization | AID 2014;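 active means 50% or more with normal probe brightness, or confirmed in later tests; inconclusive means above 50% with abnormal brightness, or retests that disagree; inactive means below 50% or failed in later tests; about a fifth of its hits are not listed in these tables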;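 further: calls also rest on retests at 20 µM and on dose response follow-up; controls were probe without protein and protein plus probe with vehicle; some compounds called inactive have numbers as strong as hits; many hits fall short of the cut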
MT1-MMP act inh: inhibitors of human MT1-MMP activation | AID 651647 | HT1080 RFP-PRO-GFP cells, GFP/RFP ratio fluorescence, overnight; percent of plate control window, DMSO zero | GFP/RFP ratio change, % at 20 µM | P50281 | actives 0.061% (n = 360,000);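 active means GFP/RFP ratio change of at least 30% with cell ATP level not reduced by more than half and red fluorescence within 50% of control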; further: strong numbers were not always called active
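Assay system: HT1080 cells carrying an RFP-PRO-GFP reporter | Dosing: Single dose of 20 µM compound, 1% DMSO final | Incubation: Cells overnight before dosing, compound overnight, 37 °C, 5% CO2 | Evaluation: GFP/RFP fluorescence ratio | Control set: DMSO and RFP-L50D-GFP cell wells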
eIF4H inh: inhibitors of RNA binding by human eIF4H | eIF4H fluorescence polarization binding assay | inhibition, % at 35 µM | actives 0.94% (n = 290,000) | AID 2012;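 active means 50% or more with normal probe brightness, or confirmed in later tests; inconclusive means above 50% with abnormal brightness, or retests that disagree; inactive means below 50% or failed in later tests; about a fifth of its hits are not listed in these tables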;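 further: calls also rest on retests at 20 µM and on dose response follow-up; 0% = protein and probe with vehicle and 100% = probe without protein; strong numbers were not always called active; many hits fall short of the cut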
Yeast UUG start: yeast start codon fidelity modulation | activity score, % at 18.7 µM | S. cerevisiae UUG-firefly luciferase reporter, luminescence/redox ratio | actives 0.13% (n = 350,000);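 active means replicate mean at a twofold rise or more, about +100% in these data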;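 further: firefly luciferase made from a UUG start codon reports start codon fidelity; reporter light over untreated wells divided by growth signal over untreated wells; some hits fall short of that in this replicate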
HIV Env fusion: inhibitors of HIV Env-mediated cell fusion | HeLa-JRFL Env/CEM21 cell fusion, luciferase | inhibition, % at 12.3 µM | actives 1.1% (n = 360,000);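 active means mean replicate inhibition score of at least 50 and every replicate individually at or above 50; inconclusive means only one of the two criteria met; inactive means mean below 50 and not all replicates reaching 50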;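 further: 0% = plate neutral controls and 100% = maraviroc near 300 nM; one replicate is shown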
CSC inhib: cancer stem cell inhibition | cancer stem cell-like cells viability, luminescence | inhibition, % at 7.5 µM | actives 1.1% (n = 300,000) | AID 2717;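 active means mean at 75% or more and at least half the replicates too; inconclusive means mean and replicates disagree; tested in HMLE shEcad cells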;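 further: 0% = median of negative and 100% = median of positive control wells; the first replicate is given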
MT1-MMP act inh RFP: also measured in MT1-MMP act inh; calls as there; RFP signal change, %; measured here: RFP expression control read;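 0 = vehicle wells; hits needed this value within 50% of zero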
* = called active by the depositor; i = inactive; ? = inconclusive; · = no result given; + = active, no number; & = joins results of further samples. Outcome played no part in choosing rows (roughly 3% active in at least one column).

SMILES	Rce1 inh	PABP FP inh	MT1-MMP act inh	MT1-MMP act inh RFP	eIF4H inh	Yeast UUG start	HIV Env fusion	CSC inhib
O=C(NCc1cccnc1)C(=O)NCC1OCCCN1S(=O)(=O)c1ccc(Cl)cc1 (stereo unspecified)	i	-1	0	0	4	-8	-9	·
CCOc1ccc(OCc2ccc(C(=O)Nc3cccc(C)n3)o2)cc1	i	11	5	3	-5	8	·	0
Cc1ccc(NC(=O)c2c(C)nn(-c3ccccc3)c2Cl)cc1	i	3	3	1	-5	-16	-14	-1
Cc1n[nH]c(=O)n1-c1ccc(OCc2ccccc2)cc1	i	-9	2	3	-13	6	-2	-6
Cc1cc(NS(=O)(=O)c2ccc(NC(=S)NC(=O)c3cccnc3)cc2)no1	i	-14	5	3	-8	·	8	-1
Cc1cnc([N+](=O)[O-])n1CCOC(=O)c1cccc(F)c1	i	-5	8	4	1	-8	4	-11
O=C(C1=C(O)C(=O)N(Cc2ccco2)C1c1cccc(Cl)c1)c1ccco1 (stereo unspecified)	i	6	-5	-1	-20	-15	-20	-17
Cc1nn(C)c(C)c1CS(=O)(=O)c1ccccc1	i	-7	-7	-1	-4	·	4	-3
CC(=O)OCC(=O)C1(O)CCC2C3CC(C)C4=CC(=O)CCC4(C)C3C(O)CC21C (stereo unspecified)	·	·	1	4	·	-3	i	·
CC(C)N(C(=S)Nc1cccnc1)c1ccccc1	i	7	1	7	0	-7	-2	-5
CC(=O)c1cccc(NC(=O)NC2CC3CCCC(C2)N3CC(C)C)c1 (stereo unspecified)	i	-1	0	7	2	-15	13	2
COc1ccc(C2C(C#N)=C(N)OC3=C2C(=O)CCC3)c(OC)c1OC (stereo unspecified)	i	8	-5	1	-5	-15	·	7
Cc1ccc(/C=N/NC(=O)C2=NNC(c3ccccc3)(c3ccccc3)C2)c(O)c1	i	0	5	5	8	-9	·	18
O=C1CCCC(O)=C1C1NCCc2ccccc21 (stereo unspecified)	i	34	-2	0	30	·	·	-4
COc1cccc(CC2(CO)CCCN(Cc3cc(F)ccc3-n3cccn3)C2)c1 (stereo unspecified)	i	-8	-7	-6	-1	8	23	-2
CSc1nc(-c2ccccc2)nn1C(=O)c1ccc(Cl)cc1	i	4	5	3	-14	-19	-147	-11
Cn1ccnc1SCc1nc2c(cnn2-c2ccccc2)c(=O)[nH]1	i	-2	-2	2	3	-14	·	-1
Cn1c(CSCc2ccc(Cl)cc2Cl)n[nH]c1=S	i	-1	5	0	-4	·	9	17
COc1ccccc1CCC(=O)OCC(=O)Nc1c(Br)cc(C)cc1Br	i	-4	-1	5	-13	-20	8	-2
O=C(CN1C(=O)c2ccccc2C1=O)c1ccc(F)cc1	i	12	-5	-4	2	-16	11	-20
CC(C)OCc1ccc(C(=O)N2CCN(CC(=O)N3CCCC3)CC2)cc1	·	·	-2	2	·	-7	·	16
O=C(/C=C/c1cccc(C(F)(F)F)c1)Nc1cccc(C(F)(F)F)c1	i	-2	-28	-26	2	4	·	33
O=C1CCC([N+](=O)[O-])C(c2ccc(Cl)c([N+](=O)[O-])c2)N1 (stereo unspecified)	i	3	-2	2	2	·	2	2
Cc1cc(C(=O)CSc2nnc(-c3ccc(OC(F)F)cc3)o2)c(C)n1Cc1cccs1	i	85*	-1	1	57*	-20	-219	2
O=C(Cn1cc(C(F)(F)F)ccc1=O)N1CCc2ccccc21	·	·	0	-1	·	-12	·	-11
O=C(c1ccccc1Sc1cccc2ccccc12)N1CCOCC1	·	-3	-7	-7	4	-4	·	5
CCCCOc1ccc(C(=O)N2CCCCCC2)cc1	i	18	2	1	0	-3	·	6
O=C(Nc1ccccc1-c1ccccc1)NC1CCN(CC(=O)N2CCOCC2)CC1	i	-5	1	2	-4	-25	-46	-2
Cc1ccc2c(c1)N(C(=O)CCC(=O)Nc1ccccc1Br)CC(C)O2 (stereo unspecified)	i	-11	-1	-3	-4	-1	-10	-5
CSc1ccc(N2C(=O)NC3(CCCCC3)C2=O)cc1	i	-3	-4	2	-5	-14	-24	-6

The last four compounds of the section above open the next one:
SMILES	Rce1 inh	PABP FP inh	MT1-MMP act inh	MT1-MMP act inh RFP	eIF4H inh	Yeast UUG start	HIV Env fusion	CSC inhib
CCCCOc1ccc(C(=O)N2CCCCCC2)cc1	i	18	2	1	0	-3	·	6
O=C(Nc1ccccc1-c1ccccc1)NC1CCN(CC(=O)N2CCOCC2)CC1	i	-5	1	2	-4	-25	-46	-2
Cc1ccc2c(c1)N(C(=O)CCC(=O)Nc1ccccc1Br)CC(C)O2 (stereo unspecified)	i	-11	-1	-3	-4	-1	-10	-5
CSc1ccc(N2C(=O)NC3(CCCCC3)C2=O)cc1	i	-3	-4	2	-5	-14	-24	-6
CCCS(=O)(=O)NC(=O)C1(C)CCN(C(=O)Cc2ccc(OC)cc2)C1 (stereo unspecified)	·	·	-1	1	·	-13	-18	·
CCCOc1ccc(NC(=O)CC2C(=O)N(c3ccc(OCC)cc3)C(=S)N2C2CC2)cc1 (stereo unspecified)	i	-6	9	1	-2	-8	-1	-13
Cc1cc(/C=C2\SC(=O)N(CC(=O)Nc3ccccc3F)C2=O)c(C)n1C	i	-1	-3	2	4	0	0	0
COc1ccccc1NC(=O)C1=C(C)NC(=O)NC1c1ccco1 (stereo unspecified)	i	1	-1	4	-6	-27	-2	-7
S=C(Nc1cccc2ccccc12)NN1CCOCC1	i	0	-3	-1	-7	-4	·	10
COc1ccc(CCNC(=O)C2CCCN2S(=O)(=O)c2cccc3nsnc23)cc1OC (stereo unspecified)	i	2	1	2	-14	-4	1	-16
CC(=O)c1c(C)[nH]c(C(=O)Nc2ccc(S(=O)(=O)N(C)C)cc2)c1C	i	7	5	2	8	3	-7	-3
O=C(CC1COc2ccccc2O1)NCCc1ccccc1 (stereo unspecified)	i	-7	0	2	-4	-17	·	-8
O=C1NC(=S)NC(=O)C1=Cc1ccccc1C(=O)O	·	·	1	3	·	-25	-7	·
Cc1cc(-c2csc(NC(=O)c3ccccc3C(F)(F)F)n2)c(C)n1Cc1ccccc1	i	4	-11	-1	12	-6	-22	4
Cc1ccc(C)c(S(=O)(=O)NCCCc2ccccc2)c1	·	-9	-1	-1	1	19	0	-5
CCCOc1cccc(C(=O)NCCNC(=O)c2ccc(C)nc2)c1	i	2	0	0	2	-8	6	4
C/C(=N/OC(=O)c1ccc(C)cc1)C(=O)c1ccc(Br)cc1	i	9	0	3	1	-13	16	-1
Cc1cc(SCC(=O)N/N=C/c2cccnc2)nc2c(C)cccc12	i	-4	1	-5	2	·	-5	-3
CS(=O)(=O)c1ccc(-c2cccc(NC(=O)c3ccc(Br)o3)c2)nn1	i	·	-1	-1	·	-8	-22	3
O=C(CN1C(=O)C2C3CC(C(Br)C3Br)C2C1=O)Nc1ccc(C(=O)O)cc1 (stereo unspecified)	i	-4	-1	2	-5	-14	-1	-4
COc1ccc(-c2nn(-c3ccccc3)cc2/C=C2/SC(=S)N(CCC(=O)O)C2=O)c(C)c1	i	10	8	-3	20	-13	-12	85*
COc1ccc(NC(=O)/C(N=Nc2ccc(Cl)c(S(=O)(=O)Nc3ccc(Cl)cc3)c2)=C(\C)O)cc1	·	·	-2	-10	·	-19	8	22
COc1ccc([N+](=O)[O-])cc1NC(=O)CC1SC(=Nc2cccc(C)c2C)N(/N=C/c2cccc(OC)c2OC)C1=O (stereo unspecified)	i	-4	3&-1	5&2	-1	-26&13	-22&1	·
COc1cccc(C(O)CC(N)=O)c1 (stereo unspecified)	i	12	-2	2	-10	-8	·	-12
CCOc1ccc(C(=O)C(C)OC(=O)Cn2cnc3c2c(=O)n(C)c(=O)n3C)cc1 (stereo unspecified)	i	·	1	-1	·	·	6	0
Cc1ccc(C2=NN(C(=O)CNCCO)C(c3cccs3)C2)cc1 (stereo unspecified)	i	-14	-4	1	-9	-10	-24	-12
Cc1csc(NC(=O)c2ccc3c(c2)OCO3)n1	i	-5	0	-1	1	-30	-35	·
CC(C)C[C@H](NC(=O)c1[nH]cnc1C(=O)N[C@@H](Cc1ccccc1)C(=O)OC(C)(C)C)C(=O)OC(C)(C)C	i	4	-37	-26	18	-17	-15	0
Cc1ccc([C@@H]2[C@@H]3C(=O)N(C)C(=O)[C@@H]3[C@]3(C)C(=O)N(CC4CC4)CC(=O)N23)o1	i	-4	1	1	-4	26	-12	0
CCC(=O)c1ccc(OCC(=O)OCC(=O)N2CCc3ccccc3C2)cc1	·	·	6	0	·	-16	·	-7
Fc1cccc(Nc2ncnc3c2cnn3-c2ccccc2)c1	i	2	-6	-19	-4	-24	-32	36
O=C(NCCC(=O)N1CCC2(CC1)NCCc1[nH]cnc12)c1ccc(F)c(F)c1	i	·	0	0	·	-21	-8	-7
Cc1c(N2C(=O)C3C4C=CC(C4)C3C2=O)c(=O)n(-c2ccccc2)n1C (stereo unspecified)	i	12	·	·	9	·	-3	0
CC(=O)N1c2ccc(S(=O)(=O)NCCC(=O)NC3CCCC(C)C3C)cc2CC1C (stereo unspecified)	i	9	·	·	2	0	-1	8
O=c1c2ccccc2nc(SCCN2CCOCC2)n1CCc1ccccc1	i	-10	-2	-9	-2	·	-11	7
Cc1c(C(=O)Nc2ccc(Cc3ccncc3)cc2)cccc1[N+](=O)[O-]	i	2	15	-12	11	·	-14	-4
CCCCOC(=O)C1CN(c2ccccc2)N=C1C(=O)OCC (stereo unspecified)	i	11	0	1	-4	·	·	-9
O=C1CNC(=O)/C(=C\c2ccccc2)N1	i	-2	2	1	-3	0	-3	-17
CC(=O)Nc1nonc1-c1nc2ccccc2n1C	i	-3	-1	0	5	-15	-31	-1
CCCC(C)NC(=O)COC(=O)c1ccc2c(c1)C(=O)N(Cc1ccco1)C2=O (stereo unspecified)	i	5	6	8	0	-16	-6	-13
O=C(NC(=S)Nc1cc(S(=O)(=O)N2CCOCC2)ccc1O)c1ccco1	i	4	1	6	4	-12	-2	14
Cc1nc(C)c(-c2csc(Nc3ccc(O)c(C(=O)O)c3)n2)s1	i	23	-3	1	6	-2	-12	·
CCN1CCN(C(=O)c2ccc(OC3CCN(CCc4ccccc4)CC3)cc2)[C@@H](C)C1=O	i	-5	2	-1	-10	-9	-6	-5
CCN(c1ccccc1)S(=O)(=O)c1cccc(C(=O)OCC(=O)Nc2ccc(NC(C)=O)cc2)c1	·	·	3	0	·	-2	·	-4
CCOc1ccc(OCC)c(NC(=O)c2nnn(CC(=O)Nc3cc(C)cc(C)c3)c2N)c1	+	·	-3	-5	·	-16	-10	19
COc1ccc(C(=O)NNC(=O)Cc2ccc(-c3ccccc3)cc2)cc1OC	i	3	3	-2	5	-9	-10	-3
O=C(Nc1c(F)cccc1F)c1ccc(-n2cncn2)nc1	i	-1	1	4	-2	-13	·	-17
CN(C)c1ccc(/C=C2\CCC/C(=C\c3ccccc3)C2=O)cc1	i	-18	-51	1	?	-15	-17	86*
CCN(CC)CCCNC(=O)Cn1cnc2sc(C)c(S(=O)(=O)N3CCN(c4ncccn4)CC3)c2c1=O	i	15	1	6	5	-18	5	-5
O=C(CNC(=O)c1ccccc1)NCc1nc2ccccc2[nH]1	i	·	3	1	·	-7	-1	9
COc1ccc(OC)c(-c2cc(C(=O)N/N=C/c3ccc(F)cc3)c3ccccc3n2)c1	i	·	-1	-5	·	-15	10	-3
Cn1cnnc1SCC(=O)Nc1ccc(Oc2ccccc2)cc1	i	2	3	0	-18	-15	10	-2
